# Screening data (PubChem BioAssay)
# ClpP mod – qHTS Assay for Activators of ClpP. ATP-dependent Clp protease proteolytic subunit (Bacillus subtilis (strain 168)), P80244. purified B. subtilis ClpP, FRET peptide cleavage, 20 min. Potency, µM (series often up to 57.5 µM), without a hit: at the top dose activity change, negative = active. 340,000 tested, 1.9% active. AID 651965, 2013; active = well fitted falling curve with a large enough effect; inconclusive = small, poorly fitted or top-dose-only effect; inactive = no such curve, though single readings can be large or run the other way; note: potency is the fitted concentration of half-maximal effect; the source files actives as falling curves though it sought activators and does not explain the sign; nearly all actives have a fitted effect of over 65% in size; many hits overshoot -100%
# Target sequence (P80244 whole entry, looked up): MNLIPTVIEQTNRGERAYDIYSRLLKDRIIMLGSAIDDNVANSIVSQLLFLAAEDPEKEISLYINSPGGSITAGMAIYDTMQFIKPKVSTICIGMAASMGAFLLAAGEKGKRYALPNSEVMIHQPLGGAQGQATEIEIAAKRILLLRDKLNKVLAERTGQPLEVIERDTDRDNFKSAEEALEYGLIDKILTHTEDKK
#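 ClpP 10 microg/mL final, pH 8 Tris/KCl buffer with BSA, glycerol, Tween-20; compound pinned in; FRET-FV substrate; RT 20 min; Ex320/Em430; ΔFRET vs ADEP 5.8 microM, DMSO, no enzyme.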
# TRPML1 ag – qHTS for Agonists of the Human Mucolipin Transient Receptor Potential 1 (TRPML1). activation, % (no concentration beside the values). TRPML1-expressing cells, Ca2+ dye fluorescence, FDSS; host cell line not named in the record; reference of the full effect not given here. Mucolipin-1 (Homo sapiens), Q9GZU1. 410,000 tested, 0.12% active; in the data active = activation above about 50%; inconclusive = about 30% to 50%; inactive = below about 30%; note: 0% is about no effect; the text of the record puts the active cut at 80%
# Target sequence (Q9GZU1 whole entry, looked up): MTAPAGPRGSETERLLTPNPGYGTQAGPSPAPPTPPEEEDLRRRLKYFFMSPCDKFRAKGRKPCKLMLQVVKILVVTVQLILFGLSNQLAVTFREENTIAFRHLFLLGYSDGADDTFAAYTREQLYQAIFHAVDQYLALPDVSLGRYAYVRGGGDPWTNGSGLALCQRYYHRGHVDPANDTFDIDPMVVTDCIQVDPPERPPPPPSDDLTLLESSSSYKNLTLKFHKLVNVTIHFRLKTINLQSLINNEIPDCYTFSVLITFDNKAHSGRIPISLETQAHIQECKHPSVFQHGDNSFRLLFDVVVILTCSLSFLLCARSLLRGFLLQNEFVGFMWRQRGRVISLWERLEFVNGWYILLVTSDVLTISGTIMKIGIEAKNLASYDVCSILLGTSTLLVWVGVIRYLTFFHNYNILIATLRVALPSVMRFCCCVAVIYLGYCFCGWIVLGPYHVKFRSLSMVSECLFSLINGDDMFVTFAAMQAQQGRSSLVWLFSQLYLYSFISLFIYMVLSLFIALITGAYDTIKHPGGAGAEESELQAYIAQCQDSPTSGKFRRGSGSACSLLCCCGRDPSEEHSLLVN
#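 Agonist activity was taken from a 110 s kinetic Ca2+ dye read on the FDSS after pinning compounds onto TRPML1-DL cells. The cells were seeded at 1,500/well with Tet inducer, incubated about 16 h, then dye-loaded at room temperature.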
# Menin MLL FP FL – qHTS Assay for Inhibitors Targeting the Menin-MLL Interaction in MLL Related Leukemias: Competition With Fluorescein Labeled MLL-derived Peptide; AID 1766, 2009; FP activity change, % at 61.4 µM; 290,000 tested, under 10 active; Fluorescence polarization, fluorescein-MLL peptide displacement from menin; inconclusive = falling polarisation curve, or a change in total fluorescence; inactive = total fluorescence flat and polarisation flat or rising; no compound was filed as active; the % refers to the polarisation; negative = inhibition;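 note: % of control where 0% means no effect; inhibitors lower the polarisation; unlabelled MLL peptide was the positive control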
# TRPML1 inh – qHTS for Inhibitors of the Human Mucolipin Transient Receptor Potential 1 (TRPML1); 390,000 tested, 0.02% active; TRPML1-inducible cells, Ca2+ dye fluorescence, FDSS; active compounds read low; inhibition of EC80 agonist-evoked calcium signal; Mucolipin-1 (Homo sapiens), Q9GZU1; AID 624415, 2012; activity change, negative = inhibition, % (test concentration not listed); in the data active means activity change below about -50%; inconclusive means about -30% to -50%; inactive means above about -30%;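 note: stimulus is agonist 54-4 at its EC80 concentration; % is set by controls: 0 for no effect and ±100 for the full control effect; compound concentration not given in the record; the text of the record puts the active cut at -80%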
#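 Calcium fluorescence in TRPML1-DL cells induced overnight with Tet: a 110 s read after compound pin addition, then a 110 s antagonist read after challenge with 54-4 at 4 uM final (EC80).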
# gsp antag – qHTS for Antagonists of gsp, the Etiologic Mutation Responsible for Fibrous Dysplasia/McCune-Albright Syndrome: qHTS | gsp-mutant cells, cAMP HTRF, 30 min; control for the full effect not named in the record | Potency, µM (top dose mostly 76.9 µM), without a hit: at the highest dose activity change, negative = inhibition, usual class: inhibitors | 340,000 tested, 0.4% active | AID 624288, 2012; active = falling curve of any shape with a large fitted effect; inconclusive = falling curve, mostly with a smaller effect; inactive = flat or rising curve; cell line not stated here;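 note: intracellular cAMP measured with PDE inhibitor Ro 20-1724 present during compound exposure; potency is the fitted concentration of half-maximal effect; % is set by controls: 0 for no effect and ±100 for the full control effect; nearly all actives have a fitted effect of over 65% in size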
#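 Cells, 2000/well, grown 16–24 h in DMEM 10% FBS with 0.5 mg/ml G418, then compounds plus […] (300 uM addition stock), 30 min at 37C. cAMP read by HTRF (cAMP-d2 and anti-cAMP antibody-K in lysis buffer) after 30 min RT.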
# gsp agonist – qHTS for Agonist of gsp, the Etiologic Mutation Responsible for Fibrous Dysplasia/McCune-Albright Syndrome: qHTS. gsp mutant cells, cAMP HTRF, 30 min; control for the full effect not named in the record. Potency, µM (series often up to 76.9 µM), inactives show at the highest dose activation (cAMP increase), most hits filed as activators. 340,000 tested, 0.13% active. AID 624287, 2012; active = well fitted activation curve with a large enough effect; inconclusive = small, poorly fitted or top-dose-only effect, or another doubt; inactive = no such curve, though single readings can be large or run the other way; cell line not stated here;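 note: phosphodiesterase inhibitor Ro 20-1724 added with compounds to block cAMP breakdown; potency is the fitted concentration of half-maximal effect; nearly all actives have a fitted effect of over 60% in size; about a fifth of the inactives were tested at one dose only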
#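 Cells in DMEM/10% FBS with G418 were pretreated with compounds in DMSO plus […] (300 uM stock) for 30 min at 37C. cAMP was measured by HTRF (cAMP-d2 plus anti-cAMP antibody-K) after 30 min at room temperature.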
# Numbers without * were called inactive; ? = inconclusive; . = not tested or not shown; & = joins results of further samples; [ ] = dose if it differs, or a comment.
SMILES,ClpP mod,TRPML1 ag,Menin MLL FP FL,TRPML1 inh,gsp antag,gsp agonist
CC(C)(C)OC(=O)NCCc1onc(-c2ccccc2F)c1C(=O)O,-2.8%,0.3,.,0,.,?
CCCS(=O)(=O)N1CCC(C(=O)NCc2ccc(F)cc2)CC1,-2.5%,-0.2,2.8,7,9%,3%
O=C(NN=C1CCCC1)c1[nH]c2ccc(Cl)cc2c1-c1ccccc1,.,1.2,1.0,-4,10%,1%[15.4 µM]
CCCc1ccc(C(=O)CN2C(=O)C(=O)N(C3CCCC3)C2=O)cc1,-0.8%,3.7,.,-5,3%,20%
CCCNC(=O)c1onc(CSc2ccc(F)cc2)c1C(=O)NCC1CC1,-1.1%,1.1,.,-7,-6%,.
Cc1cccc(-c2cc3nc(C)cc(NCCCn4ccnc4)n3n2)c1,?,-1.2,2.4,0,2%,-26%
CC1CCC(NC(=O)C(Cc2ccccc2)n2cccc2)CC1 (centres undefined),-0.8%,.,3.0,.,-17%,0%
Cc1ccc([C@H]2C(C(=O)O)=CC[C@@H](c3ccc(Cl)c(Cl)c3)N2S(=O)(=O)c2ccc(C)cc2)cc1,3.1%,-0.2,.,0,-15%,.
Cn1c(=O)[nH]c(=O)c2c1nc(SCC(O)CCl)n2Cc1ccccc1 (centres undefined),-1.2%,0.0,-0.8,12,2%,2%
CCn1c(Cc2ccc(OC)cc2)nnc1SCC(=O)Nc1nc2ccccc2s1,-1.5%,-1.2,-0.1,-7,4%,?

# Continued, starting with the last 2 of the part before.
SMILES,ClpP mod,TRPML1 ag,Menin MLL FP FL,TRPML1 inh,gsp antag,gsp agonist
Cn1c(=O)[nH]c(=O)c2c1nc(SCC(O)CCl)n2Cc1ccccc1 (centres undefined),-1.2%,0.0,-0.8,12,2%,2%
CCn1c(Cc2ccc(OC)cc2)nnc1SCC(=O)Nc1nc2ccccc2s1,-1.5%,-1.2,-0.1,-7,4%,?
N#CCOC(=O)C1c2ccccc2Oc2ccccc21,.,2.2,5.9,9,6%,1%
CN(C)CCOC(=O)Cc1ccc(Cl)cc1,-2.1%,-0.1,1.6,-1,16%,-23%
NCCCC(N)(C(=O)O)C(F)F (centres undefined),0.7%,-0.5,1.2&-0.7,-1,0%,.
CCOCCCNC(=O)c1cnc2sc(N3CCCCCC3)nn2c1=O,16µM*,-0.1,.,-9,.,.
COc1ccc2sc(N(CCCN(C)C)C(=O)c3ccc(S(=O)(=O)N4CCc5ccccc5C4)cc3)nc2c1,-2.5%,2.2,.,6,6%,29%
CCc1noc(C)c1C(=O)Nc1ccc(C)c(S(=O)(=O)N2CCCCCC2)c1,-4.7%,0.7,.,3,-7%,10%
CCOC(=O)CCc1c(C)c2ccc(OCC(=O)OC(C)C)cc2oc1=O,?,0.2,2.4,22,?,10%
CC1=C(C(=O)Nc2ccc(C)cc2C)C(c2cccs2)n2nc(SCc3ccc(Cl)cc3)nc2N1 (centres undefined),0.6%,-0.2,.,20,.,.
CCOC(=O)c1ccc(N2C(=O)c3n[nH]c(-c4cccs4)c3C2c2ccc(C(C)C)cc2)cc1 (centres undefined),-3.8%,0.7,.,-10,.,.
COc1cc(NC(=O)C2CC2)c(OC)cc1NC(=O)CCC(=O)NC1CCN(Cc2ccccc2)CC1,.,0.6,-1.7,-12,-7%,-5%[15.4 µM]
Cc1ccc(-c2c3c(=O)n(C)c(=O)n(C)c3cn2Cc2cccnc2)cc1,-5.9%,-0.4,1.4,1,-9%,0%
Cc1ccc(-c2nn(CC(=O)NCc3cc(-c4nn(C)c(=O)c5ccccc45)ccc3C)c(=O)c3ccccc23)cc1,-13%,-0.5,-1.1,-29,-2%,-14%
O=C(COc1ccc(/C=N/NC(=O)C(=O)N2CCCCCC2)cc1)Nc1ccccc1Cl,0.9%,3.1,1.6,3,?,7%
O=C(Nc1cc(Cl)ccc1O)c1snnc1-c1ccccc1,0.8%,-0.8,3.5,2,22µM*,20%
CC1CC(C)CN(C(=O)c2ccc(NC(=O)c3ccc(=O)[nH]c3)cc2)C1 (centres undefined),-1.8%,-0.1,3.2,-5,6%,-13%
CCOc1cccc(/C=N/N=C/c2cccc(OCC)c2O)c1O,.,0.3,-0.7,11,7%,4%
O=C(Nc1ccc(S(=O)(=O)N2CCCCCC2)cc1)c1ccc(Br)o1,-1.0%,-1.0,0.1,14,-12%,-17%
CC(=O)N(CN1C(=O)c2ccccc2C1=O)c1cccc(C)c1,-2.4%,0.4,0.6,-9,-1%,8%
O=C(c1cccc([N+](=O)[O-])c1)c1cc2ccccc2o1,0.4%,-0.3,1.9,9,14%,-1%[15.4 µM]
COc1cccc(N2CCN(C(=O)c3ccc(Cn4c(=O)[nH]c5cc(OC)c(OC)cc5c4=O)cc3)CC2)c1,-23%,-0.7,.,-10,.,.
N#Cc1ccc(-c2ccc3nccn3c2)cc1,-26%,0.8,.,29,.,.
COc1ccc(CNC(=O)c2sc3nc4n(c(=O)c3c2C)CCCCC4)cc1,2.1%,-0.7,.,28,.,.
O=S(=O)(Nc1ccc(N2CCCCC2)cc1)c1ccccc1F,-2.1%,-0.7,8.1,4,1%,16%[15.4 µM]
Cc1ccc(-n2cnc3cc(C(=O)NCc4ccc(F)cc4)ccc32)c(C)c1,-4.1%,0.2,.,1,.,.
Cc1ccc(NC(=O)c2nc[nH]c2C(=O)NCCCCCCNC(=O)c2[nH]cnc2C(=O)Nc2ccc(C)cc2)cc1,-16%,-0.7,.,0,10%,23%
COc1cccc2cc(C(=O)Nc3cc(Cl)ccc3N3CCOCC3)c(=O)oc12,.,-0.1,-0.2,56,10%,-24%
O=C(COc1cccnc1[N+](=O)[O-])Nc1ccccc1Sc1ccccc1,-5.4%,3.4,1.2,18,-7%,-15%
COc1ccc(-c2noc(CN(C)Cc3ccccc3)n2)cc1,-3.9%,0.0,-0.1,-11,-8%,-19%
COc1ccc(CCNC(=O)CSc2nc(=O)n3cccc(C)c3n2)cc1OC,0.7%,0.1,.,6,-1%,-5%
Cc1sc2nc(SCC(=O)N(C)Cc3ccccc3)n(-c3ccccc3)c(=O)c2c1C,18%,0.8,9.1,-12,9%,18%
O=C(c1ccco1)N1CC2(CC(c3ccc(Cl)cc3)=NO2)CN1Cc1ccc(Br)cc1 (centres undefined),-0.7%,-0.3,.,30,.,-87%[inhibitor]
Cc1cc(NS(=O)(=O)c2ccc(NC(=O)c3ccc(Br)o3)cc2)nc(C)n1,.,-0.2,0.2,-3,-11%,-2%[15.4 µM]
CN(C)c1ncc(C(=O)NCc2ccc(Cl)cc2)cn1,-12%,2.6,.,-13,.,.
O=C(c1cc(-c2ccc(Cl)s2)nc2ccccc12)N1CCOCC1,.,0.8,.,-9,-12%,27%[15.4 µM]
N#Cc1c(NC(=O)c2ccncc2)sc2c1CCC2,-3.4%,-0.1,7.1,-3,?,2%
CCCCc1ccc(NC(=O)c2ccc(N(C)S(C)(=O)=O)cc2)cc1,.,0.5,4.9,-15,8%,21%[15.4 µM]
CC1=C(C(=O)Nc2ccc(Cl)cc2)C(c2cccs2)n2nnnc2N1 (centres undefined),-0.7%,-0.7,0.9,-5,-4%,14%
O=C(C1CCC1)N1CCc2cc(S(=O)(=O)NCC3COc4ccccc4O3)ccc21 (centres undefined),1.5%,5.7,-0.7,-2,-21%,5%
COc1ncnc2c1sc1nc(-c3ccccc3)c3c(c12)CCCC3,-23%,1.0,1.5,-16,5%,?
CC1(c2ccccc2)NC(=O)N(CC(=O)N2CCN(S(=O)(=O)c3cccs3)CC2)C1=O (centres undefined),-2.6%,0.4,.,8,3%,6%[15.4 µM]
O=C(O)c1ccc(NS(=O)(=O)c2ccc(N3CCCC3)c([N+](=O)[O-])c2)cc1,-1.4%,-0.2,0.9,-8,2%,?
COc1ccc2c(c1)[C@H]1[C@H](CO2)[C@H](c2ccccc2)[C@]2(C)C(=O)Nc3ccccc3C(=O)N12,-12%,1.0,.,-16,-17%,.
Cc1cc(C)c2nc(SCc3ccc([N+](=O)[O-])cc3)nc(C)c2c1,-1.0%,-0.6,-0.2,1,6%,-11%
COc1ccccc1N1CCN(CCCCOc2cccc3ccccc23)CC1,-10%,0.5,2.4,-5,0%,-4%
c1ccc(Cc2nnc(-c3ccccc3)o2)cc1,1.8%,4.4,-3.2,-1,?,-11%
COc1ccc2c(c1OC)C(=O)N1c3ccccc3C(=O)N(c3ccc(F)cc3)C21 (centres undefined),-3.8%,-1.7,2.3,-5,-11%,2%
C/C(=N/N=C/c1ccc(N(C)C)cc1)c1ccccc1,0.6%,-0.1,2.6,-10,4%,17%
Cc1c(Cl)cccc1NC(=S)N1CCN(C(=O)C2CCCO2)CC1 (centres undefined),28µM*,0.9,5.7,-7,3%,11%
CCOC(=O)C1=C(C)NC(=S)N(C=O)C1c1ccccc1 (centres undefined),.,-0.8,-1.9,4,2%,-4%
C/C(Cn1nnc([N+](=O)[O-])n1)=N\NC(=O)c1ccncc1,.,0.7,-4.8,17,.,6%[15.4 µM]

# (next part)
SMILES,ClpP mod,TRPML1 ag,Menin MLL FP FL,TRPML1 inh,gsp antag,gsp agonist
COc1ccccc1NS(=O)(=O)c1cc(NC(=O)c2ccccc2F)ccc1N1CCOCC1,.,1.1,-2.4,17,-44%,4%[15.4 µM]
CC/C(=N/O)C(=O)c1ccc(Br)cc1,.,2.7,-0.1,2,8%,-2%[15.4 µM]
COc1ccc(C2c3c(oc4ccccc4c3=O)C(=O)N2c2ccccn2)cc1 (centres undefined),0.4%,0.0,6.1,17,-25%,?
CCN(CC)S(=O)(=O)c1ccc(Cl)c(NC(=O)COC(=O)/C=C/c2cc(OC)c(OC)c(OC)c2)c1,-0.2%,-0.6,4.4,-3,-4%,1%[15.4 µM]
CCCC(=O)Nc1sc(C)c(-c2ccc(OC)cc2)c1C#N,-4.2%,0.5,3.6,23,18%,12%

# Entries of single compounds, looked up by structure. Order of screens: ClpP mod | TRPML1 ag | Menin MLL FP FL | TRPML1 inh | gsp antag | gsp agonist
# Shown for COc1ccccc1NS(=O)(=O)c1cc(NC(=O)c2ccccc2F)ccc1N1CCOCC1 : . | 1.1 | -2.4 | 17 | -44% | 4%[15.4 µM]
# Shown for CCN(CC)S(=O)(=O)c1ccc(Cl)c(NC(=O)COC(=O)/C=C/c2cc(OC)c(OC)c(OC)c2)c1 : -0.2% | -0.6 | 4.4 | -3 | -4% | 1%[15.4 µM]
